Ecoli growth: inhibitors of Escherichia coli growth; OD600, 23 h; stronger effect = lower value; OD600 absorbance (test concentration not listed); 330,000 compounds, 0.21% hits;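 active means OD600 absorbance below the run mean of sample wells minus 3.6 SD, in any replicate, cut at about 0.56 in these data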;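 further: stock transfer was 300 nL into about 60 µL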
UCH37 inh: inhibitors of human deubiquitinating enzyme UCH37; Q9Y5K5; purified proteasome/UCH37, Ub-AMC cleavage fluorescence; inhibition, % (test concentration not listed); 330,000 compounds, 0.33% hits;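 active means mean of two replicates above 20%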;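 further: 0% = compound-free wells with enzyme and 100% = wells lacking proteasome; stock transfer was 100 nL into about 20 µL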
Target sequence (Q9Y5K5 whole entry, looked up): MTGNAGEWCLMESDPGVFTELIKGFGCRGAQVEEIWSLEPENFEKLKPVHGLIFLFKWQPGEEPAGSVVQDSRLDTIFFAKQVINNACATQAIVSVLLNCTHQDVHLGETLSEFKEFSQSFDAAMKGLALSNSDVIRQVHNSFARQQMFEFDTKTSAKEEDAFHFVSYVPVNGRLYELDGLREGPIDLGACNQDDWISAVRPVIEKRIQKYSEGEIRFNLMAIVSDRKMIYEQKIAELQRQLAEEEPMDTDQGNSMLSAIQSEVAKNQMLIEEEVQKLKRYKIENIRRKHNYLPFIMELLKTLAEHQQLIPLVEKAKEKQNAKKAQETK
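Assay system: Proteasome-bound UCH37. Buffer or medium: pH 7.4 Tris-HCl (50 mM) with ovalbumin, ATP-MgCl2, DTT. Incubation: 30 min preincubation with enzyme, 25 min cleavage at room temperature. Measured by: fluorescence, ex 355 nm, em 460 nm. Read-out basis: percent inhibition. Control set: wells without proteasome as full block, compound-free enzyme plus substrate as uninhibited.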
* hit, by the source's call. An excerpt; count on the stated rates, not on these rows.

SMILES	Ecoli growth	UCH37 inh
Cn1c(=O)n(C)c2cc(C=NNC(=O)c3ccc(Cl)cc3)ccc21	0.71	-287
COc1cc(C=Nn2cnn(Cc3ccccc3Cl)c2=S)cc(OC)c1OC	0.7	4.3
O=C(NN=Cc1ccc(O)cc1O)NC12CC3CC(CC(C3)C1)C2	0.7	-1.4
C[C@]12CCC3C(CC[C@H]4CC(O)CC[C@]34C)C1CCC2=NO (stereo not given in full)	0.69	0.9
COc1cccc(NC(=O)C(=O)NN=C(C)CC(=O)Nc2ccc(NC(C)=O)cc2)c1	0.73	1.1
O=C(NN=Cc1ccccn1)c1cc(C2CC2)nc2ccccc12	0.66	3.6
CC(CC(=O)Nc1cccnc1)=NNC(=O)C(=O)Nc1cccc(C)c1	0.7	3.0
O=C(NN=C1CCCc2ccccc21)C(c1ccccc1)c1ccccc1	0.75	0.7
COc1ccc(C=NNC(=O)c2ccccc2Br)cc1COc1ccccc1	0.72	0.1
COc1cc(C(C)=NN2CCN(c3ccccc3OC)CC2)ccc1O	0.67	5.0
Cc1ccc2nc(NN=Cc3ccco3)cc(C)c2c1	0.61	-19
CC(=NNC(=O)c1c(Br)c(C)nn1C)c1ccc(NC(=O)c2ccoc2C)cc1	0.67	-55
Cc1cccc(C(=O)NN=Cc2ccc[nH]2)c1	0.68	7.1
Cc1[nH]n(-c2ccc(Cl)cc2)c(=O)c1C=Nn1c(C)nc2ccccc2c1=O	0.69	4.2
Cc1ccc(NC(=O)CCC(=O)NN=Cc2ccc(O)cc2)cc1	0.61	1.2
Cc1nc2c(C)cccc2cc1C(=O)NN=Cc1cccnc1	0.68	-0.2
CC(=NNC1=NCCN1)c1ccc(N)c([N+](=O)[O-])c1	0.65	4.3
S=c1[nH]c(-c2ccccc2)cn1N=Cc1cccc2ccccc12	0.68	3.3
O=C(O)c1cc(NN=Cc2c[nH]c3ccccc23)ccc1Cl	0.67	4.5
O=C(NN=Cc1ccc(OC(=O)c2ccccc2)cc1)c1cccc(O)c1	0.67	-2.1
Cc1cc([N+](=O)[O-])c(C)cc1-c1ccc(C=NNC(=O)Cn2nnnc2N)o1	0.71	3.1
CCOC(=O)C1=C(C)N=c2sc(=Cc3cccc([N+](=O)[O-])c3O)c(=O)n2C1c1ccc(OC)cc1OC (stereo not given)	0.74	9.6
COc1cc(C=NN(C)C)cc(Br)c1O	0.66	6.2
O=C(NN=Cc1ccccn1)c1ccccc1O	0.58	0.6
Cc1cc(C)nc(SCc2ccc(C(=O)NN=Cc3cccc(O)c3O)cc2)n1	0.65	2.5
Cc1nn(-c2ccccc2)c(Cl)c1C=NNC(=O)c1cccc(S(=O)(=O)N2CCCC2)c1	0.69	1.8
O=C1NCCCC1C(=O)NN=Cc1ccccc1 (stereo not given)	0.71	4.2
O=C1CC(C(=O)O)S/C(=N\N=Cc2ccc(Br)cc2)N1 (stereo not given)	0.65	8.1
N#CC(=NNc1ccc(S(=O)(=O)N2CCOCC2)cc1)C(N)=S	0.81	22*
CCCOc1cccc(-c2cc(C(=O)NN=Cc3ccccn3)c3ccccc3n2)c1	0.71	-2.3
O=C(NN=Cc1ccc(Br)cc1)c1ccc(Br)o1	0.69	2.3
CCOC(=O)c1cc2n(c1N=CN(C)C)-c1ccccc1C2=O	0.68	6.1
CC(Cn1nnc([N+](=O)[O-])n1)=NNC(=O)c1ccc(Cl)c(Cl)c1	0.65	3.1
Cc1cccc(C=NN=Cc2cccc(C)c2)c1	0.66	5.1
CCN(CC)Cc1c(C(=O)NN=Cc2cccs2)nnn1-c1nonc1N	0.65	8.5
O=C(NN=Cc1ccc(-c2ccccc2[N+](=O)[O-])o1)c1cncc(Br)c1	0.7	7.7

Look-ups from the results shown.
In Ecoli growth, `O=C(NN=Cc1ccc(Br)cc1)c1ccc(Br)o1` is entered as 0.69
In Ecoli growth, `CCN(CC)Cc1c(C(=O)NN=Cc2cccs2)nnn1-c1nonc1N` is entered as 0.65
In UCH37 inh, `O=C1CC(C(=O)O)S/C(=N\N=Cc2ccc(Br)cc2)N1` (stereo not given) is entered as 8.1

Five of these compounds in another layout:
Screens in order – Ecoli growth	UCH37 inh
Cc1nn(-c2ccccc2)c(Cl)c1C=NNC(=O)c1cccc(S(=O)(=O)N2CCCC2)c1
    0.69	1.8
O=C1NCCCC1C(=O)NN=Cc1ccccc1 (stereo not given)
    0.71	4.2
O=C1CC(C(=O)O)S/C(=N\N=Cc2ccc(Br)cc2)N1 (stereo not given)
    0.65	8.1
N#CC(=NNc1ccc(S(=O)(=O)N2CCOCC2)cc1)C(N)=S
    0.81	22*
CCCOc1cccc(-c2cc(C(=O)NN=Cc3ccccn3)c3ccccc3n2)c1
    0.71	-2.3

Remaining list, next part:
SMILES	Ecoli growth	UCH37 inh
O=C(NN=Cc1ccccc1Cl)c1[nH]c2ccc(Br)cc2c1-c1ccccc1	0.72	-13
O=[N+]([O-])c1cc(Br)cc(C=Nn2cnnc2)c1O	0.69	15
O=[N+]([O-])c1cccc(-c2csc(NN=Cc3cccc(O)c3)n2)c1	0.67	7.2
CCc1ccc(C=NNC(=O)Cc2ccc(OC)c(OC)c2)s1	0.63	5.8
CC(=NNC(=O)COc1ccc(C)cc1C(C)C)c1cc2ccccc2o1	0.72	3.0
O=C(Cn1c2c(c(=O)n3ncnc13)CCC2)NN=Cc1cccs1	0.7	4.1
CC(=O)Nc1cccc(C(C)=NNC(=O)c2ccc(CN3CCOCC3)cc2)c1	0.64	0.4
COc1ccc(NC(=O)CC(C)=NNC(=O)c2ccco2)c([N+](=O)[O-])c1	0.67	4.0
CC(CC(=O)Nc1cc(C)ccn1)=NNC(=O)c1cccc(C)c1	0.71	1.8
O=C(O)c1cccc(NN=Cc2cccc3ccccc23)c1	0.63	1.2
O=C(Cc1csc(N2CCOCC2)n1)NN=Cc1ccc(F)cc1	0.7	1.1
CCOc1cc(C=NNc2nn3cnnc3c3ccccc23)ccc1O	0.71	11
O=C(O)c1ccc(NN=Cc2cc3cc4c(cc3nc2Cl)OCCO4)cc1	0.71	5.5
O=C(O)c1cccc(NN=Cc2cccs2)c1	0.63	12
Nc1nonc1-n1nnc(C(=O)NN=Cc2c(Cl)cccc2Cl)c1CSC1=NCCS1	0.73	0.3
O=[N+]([O-])c1ccc(C=NNc2nc(NCc3ccccc3)nc(N3CCOCC3)n2)cc1	0.72	3.2
CC(=NNC(N)=O)c1ccc(Cl)s1	0.7	3.9
COC(=O)c1ccc(C=NN2CCN(Cc3ccc(C)cc3)CC2)cc1	0.72	3.1
O=C(NN=Cc1ccc2c(c1)OCO2)c1cc(-c2ccccc2Cl)nc2ccccc12	0.68	-17
CC(Oc1ccc(-c2ccccc2)cc1)C(=O)NN=Cc1cccnc1 (stereo not given)	0.68	2.4
CCCCC(=O)NN=Cc1ccc(N2CCOCC2)c([N+](=O)[O-])c1	0.68	9.5
O=C(NN=Cc1c[nH]c2ccccc12)c1ccc(O)cc1	0.69	3.8
CC(CC(=O)Nc1ccc(N(C)C)cc1)=NNC(=O)c1ccc(Cl)cc1Cl	0.64	2.7
N=c1scc(-c2ccccc2)n1N=Cc1ccco1	0.71	2.3
Cc1nnc(C)n1N=Cc1ccc2c(c1)OCCO2	0.69	-3.8
S=c1[nH]nc(C2CCCCC2)n1N=Cc1c(Cl)cccc1Cl	0.65	3.0
Cc1cc(O)c(C=Nc2ccccn2)c(=O)o1	0.68	-3.2
Cc1ccccc1C(=O)NN=Cc1ccccn1	0.67	1.5
O=C(NN=Cc1cc(Br)ccc1O)c1ccccc1Cl	0.63	-5.9
COc1ccc(NN=C(Oc2ccc([N+](=O)[O-])cc2)C(C)=O)cc1	0.66	5.1
COc1ccc(S(=O)(=O)N(CC(=O)NN=Cc2cccs2)c2cc(C)cc(C)c2)cc1OC	0.72	5.4
C/C(C=NNC(=O)c1cccs1)=C\c1ccccc1	0.65	3.7
Cc1ccc(C=NN2CCN(Cc3ccccc3)CC2)s1	0.67	3.1
COc1cc(C=NNc2ccccn2)cc(OC)c1O	0.7	11
COc1ccccc1NC(=O)C(=O)NN=Cc1ccc([N+](=O)[O-])s1	0.7	2.0
Cc1nccn1CC(=O)NN=Cc1c[nH]c2ccccc12	0.68	6.4
Cc1cc(C)nc(N=C(NC(=O)C(C)(C)C)Nc2ccc(F)cc2)n1	0.62	2.5
CC(=NNc1ccccn1)c1ccc(S(=O)(=O)NCc2ccco2)cc1	0.66	6.4
CC(C)COc1cccc(-c2cc(C(=O)NN=Cc3ccncc3)c3ccccc3n2)c1	0.77	2.7
Cc1ccc(C=Nn2c(C)cc(C)c(C#N)c2=O)o1	0.68	11
Cc1ccnn1CC(=O)NN=Cc1cccs1	0.69	2.8
CC(=NNC(=O)C(=O)Nc1cccc(Cl)c1)c1ccncc1	0.67	-2.4
CCC(=O)NN=C(C)CC(=O)Nc1ccc2c(c1)OCCO2	0.69	-1.3
CC(CC(=O)NC(C)(C)C)=NNC(=O)COc1ccc(C)cc1Br	0.71	1.6
Cc1ccc(S(=O)(=O)N=C(c2ccccc2)N2CCOCC2)c(C)c1	0.67	0.4
CCN(CC)S(=O)(=O)c1ccc(NN=C(C)c2ccc3c(c2)OCO3)c([N+](=O)[O-])c1	0.68	2.5
O=C(COc1ccccc1[N+](=O)[O-])NN=Cc1cccs1	0.69	5.6
ON=CCc1[nH]c2ccccc2c1-c1ccccc1	0.65	1.0
CCOc1ccc(C=NNc2ccccn2)cc1	0.67	1.9
C/C=C/C=NNC(=O)CN(c1ccc(Br)cc1)S(=O)(=O)c1ccccc1	0.7	3.6
CNC(=S)NN=Cc1ccc(OCC(=O)Nc2c(C)cc(C)cc2C)c(OC)c1	0.71	0.8
COc1cc(C=NNC(=O)c2ccncc2)c([N+](=O)[O-])cc1OC	0.62	8.8
Cc1nc(NN=Cc2ccc(O)cc2O)cc(N2CCOCC2)n1	0.7	9.4
Cc1cc2c(cc1C)C(=NNC(=O)c1ccccn1)CCC2	0.67	1.5
COC(=O)c1sccc1-c1ccc(C=NOCc2c(Cl)cccc2Cl)o1	0.72	-213
Cc1cc(C)c(C=Nn2c(C)cc(C)c(C#N)c2=O)c(C)c1	0.72	0.7
CCCN(CCC)Cc1c(C(=O)NN=Cc2ccsc2)nnn1-c1nonc1N	0.65	1.6
C=CCc1c(C)nc(C)nc1NN=Cc1ccc([N+](=O)[O-])cc1	0.76	16
Cc1c(C=NNC(=O)c2cccc(F)c2)cnn1C	0.69	-1.7
CCN(CC)Cc1c(C(=O)NN=Cc2cccc3ccccc23)nnn1-c1nonc1N	0.65	3.9
More records
SMILES	Ecoli growth	UCH37 inh
COc1cc(-c2nc3ccccn3c2N=Cc2ccccc2)ccc1O	0.65	-82
O=c1cnnc(NN=CC2CC=CCC2)[nH]1 (stereo not given)	0.7	0.7
CCN(CC)c1ccc(C=NNc2nc(C)cc(C)n2)c(O)c1	0.71	2.7
COc1cc(C=NNC(=O)c2ccc(N3CCCC3=O)cc2)ccc1O	0.71	9.1
COc1ccc(C(C)=NOCC(=O)N2CC3(C)CC2CC(C)(C)C3)cc1 (stereo not given)	0.68	0.9
O=C1c2cccc3cccc(c23)C(=O)N1N=Cc1ccc(O)cc1O	0.73	1.1
Cc1ccc(C=Nn2c(=O)c(C(C)(C)C)nn3cnnc23)cc1	0.72	3.4
Nc1nnc(CC(=O)NN=Cc2cc([N+](=O)[O-])cc(Br)c2O)s1	0.68	7.6
Fc1ccc(Cl)cc1C=Nn1cnnc1SCc1ccccc1	0.68	0.5
COc1ccccc1C=NNC(=O)c1ccc(N(C)S(=O)(=O)c2ccccc2)cc1	0.62	2.7
O=C(NN=Cc1coc2ccc(Cl)cc2c1=O)c1ccc(O)cc1	0.65	-3.8
O=C(NN=Cc1ccccc1OC(=O)N1CCOCC1)c1cccs1	0.68	-22
CSCC[C@H](NC(=O)[C@@H]1Cc2ccccc2CN1)C(=O)NCC1CCC(C(=O)O)CC1 (stereo not given in full)	0.66	1.6
O=C(Cc1ccc(Br)cc1)NN=Cc1cccnc1	0.68	4.7
COC(=O)c1cc(NC(=O)c2ccccc2)c(=O)oc1CC=NOCc1ccc(Cl)cc1Cl	0.81	0.9
CC(=NNC(=O)CNC(=O)COc1ccccc1)c1ccc(Cl)cc1	0.67	2.0
C/C(C=NNC(=O)c1ccncc1)=C\c1ccccc1	0.63	8.9
Nc1nonc1NN=Cc1c(O)ccc2ccccc12	0.65	-9.2
Cc1ccc(-n2c(SCC(=O)NN=Cc3ccccc3C(=O)O)nnc2-c2ccc(Cl)cc2)cc1	0.71	1.3
CC(=NNC(=O)CCc1ccccc1)C1C(=O)c2ccccc2C1=O	0.68	8.7
C=CCc1cccc(C=Nn2c(C)nnc2C)c1O	0.71	4.2
CC(/C=C/c1ccccc1)=NNC(=O)CNC(=O)c1ccccc1Cl	0.68	1.9
Fc1ccc(CON=C2CCCc3nonc32)cc1	0.7	1.1
Cc1nnc(C)n1N=Cc1ccc(-c2ccccc2)cc1	0.7	5.4
O=C(CCC(=O)Nc1ccc(F)cc1)NN=Cc1ccncc1	0.72	-0.9
CC(=NNC(=O)c1ccc(NN=C(C)c2ccc(O)cc2)cc1)c1ccc(O)cc1	0.6	-49
CC(C)[C@H](NC(=O)OC(C)(C)C)C(=O)NN=Cc1cccc2nccnc12	0.71	3.2
CN(Cc1c(C(=O)NN=Cc2ccccc2)nnn1-c1nonc1N)C1CCCCC1	0.69	0.5
O=C(CN1CCCCC1)NN=Cc1ccc(Cl)cc1	0.65	1.1
Cc1ccc(C(=O)NN=Cc2ccc[nH]2)cn1	0.7	13
COCCNC(=S)NN=Cc1c(C)[nH]c2ccccc12	0.67	12
Cc1oc(C=NNC(=O)CN(c2ccccc2Br)S(C)(=O)=O)cc1Br	0.69	0.5

Assay outcomes (PubChem)
